GIV-Gai inh – blocks GIV peptide binding to rat Galpha-i3 | percent of control (FP), % (concentration not given with the values) | AID 1224905 | 210,000 tested, 0.42% active | Galpha-i3/FITC-GIV peptide fluorescence polarization, 90 min; stronger effect = lower value; scaled: aluminum fluoride 0%, vehicle 100%;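 active = replicate mean at 85% of control or lower, very high polarization wells dropped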;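 note: wells of about 15 µL received 100 nL stock; the first replicate is given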
Target sequence (P08753 whole entry, looked up): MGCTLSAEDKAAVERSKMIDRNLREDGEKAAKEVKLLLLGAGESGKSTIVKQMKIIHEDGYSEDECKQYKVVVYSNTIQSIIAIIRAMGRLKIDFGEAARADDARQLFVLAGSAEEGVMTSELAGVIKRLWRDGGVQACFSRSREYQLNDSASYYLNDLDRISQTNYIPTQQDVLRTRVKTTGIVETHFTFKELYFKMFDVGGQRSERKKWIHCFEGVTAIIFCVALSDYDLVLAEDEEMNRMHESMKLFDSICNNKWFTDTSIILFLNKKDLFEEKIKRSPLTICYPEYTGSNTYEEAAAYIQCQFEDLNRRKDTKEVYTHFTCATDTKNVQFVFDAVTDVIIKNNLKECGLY
Sa growth inh – S. aureus growth inhibition; relative growth, % (concentration not given with the values); 170,000 tested, 0.53% active; AID 720641; S. aureus RN4220 growth, OD600, 20 h, 42 °C; stronger effect = lower value;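 active = growth at 42 °C up to 50% and 20 or more points under that at 30 °C, or under 10% at both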;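 note: 300 nL library stock went into each well; scaled to the means of positive and negative controls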
HCMV NEC inh – inhibitors of HCMV UL50-UL53 nuclear egress complex interaction | HTRF UL50-UL53 interaction, normalized percent inhibition | inhibition, % (concentration not given with the values) | 190,000 tested, 0.15% active;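 active = both replicates at 50% or more, plus weaker picks with an unusually low signal ratio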;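 note: stock transfer was 100 nL into about 20 µL; 0% = negative control wells and 100% = wells with untagged competitor protein; inactives centre near -12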
Sa growth inh second temp – second read-out of Sa growth inh, no call of its own (marks repeat the call); relative growth, %; measured here: growth at 30 °C;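 optical density after 20 h as mean of two plates; 100% = untreated growth and lower means inhibition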
Active calls of the source: *; nt = not tested or not shown; & = joins results of further samples.

SMILES	GIV-Gai inh	Sa growth inh	Sa growth inh second temp	HCMV NEC inh
Oc1c(N=Nc2ccccc2)cc2c3c1CCCN3CCC2	nt	70	83	-40
CC1(C)C2CC=C(/C=N/n3cnnc3)C1C2 (stereo not given)	nt	123	84	-22
CC(C)CC(=O)N1CCN(Cc2ccc3c(c2)OCO3)CC1	105	103	88	4
O=S(=O)(c1ccc(-c2ccccc2)cc1)N1CCOCC1	nt	86	96	12
O=C(O)/C=C/c1ccc(Cl)cc1Cl	nt	94	96	-25
c1cn2cc(Cc3nnc4n3CCC4)nc2s1	nt	97	87	-16
Cc1cccc(NC(=O)C(C)N2CCNC(=O)C2)c1 (stereo not given)	nt	104	88	-12
O=C(CSc1ncccc1C(F)(F)F)Nc1ccc(Cl)cc1	100	85	93	8
COc1ccc2c(C)c(CCC(=O)NCc3ccccc3Cl)c(=O)oc2c1C	98	97	90	-25
O=C(c1cc2sccc2n1Cc1ccccc1)N1CCN(c2ccccc2F)CC1	101	124	79	1

Look-ups from the list.
`O=C(O)/C=C/c1ccc(Cl)cc1Cl` in Sa growth inh second temp = 96
`COc1ccc2c(C)c(CCC(=O)NCc3ccccc3Cl)c(=O)oc2c1C` in Sa growth inh = 97
`CC(C)CC(=O)N1CCN(Cc2ccc3c(c2)OCO3)CC1` in Sa growth inh = 103
`O=S(=O)(c1ccc(-c2ccccc2)cc1)N1CCOCC1` in HCMV NEC inh = 12

(more compounds)
SMILES	GIV-Gai inh	Sa growth inh	Sa growth inh second temp	HCMV NEC inh
CCc1c(C)nc(-n2nc(C)cc2NC(=O)c2ccc(C(C)(C)C)cc2)[nH]c1=O	104	nt	nt	8
CCc1nn(-c2ccccc2)c2nc(-c3ccccc3)nc(SCC(=O)Nc3cccc(OC)c3)c12	104	nt	nt	-11
COc1ccc(C(=O)OCC(=O)Nc2ncc(Cl)c(C)c2Cl)c(OC)c1	nt	77	62	-33
Nc1nc2ccc(Oc3ccccc3)cc2s1	nt	95	97	-11
CCN1CCCC(OC(=O)C(c2ccccc2)c2ccccc2)C1 (stereo not given)	nt	90	88	-28&-29
Cc1cc2n(n1)CCCN2C(=O)Nc1ccc(F)c(Cl)c1	96	88	80	nt
COC(=O)C12CC3CC(CC(Br)(C3)C1)C2	nt	120	83	-17
CC1(C)CC(NCc2ccccc2)CCO1 (stereo not given)	97	86	82	-41
Cc1ccc(/C(N)=N/OC(=O)c2ccccc2)cc1	99	87	86	-16
NNC(=O)c1ccc(OCc2ccc(F)cc2)cc1	100	93	93	-13
Cc1ccc(NC(=O)Cc2csc(C)n2)cc1	122	nt	nt	2
O=C(CCc1nc(-c2cc3ccccc3[nH]c2=O)no1)NCc1cccnc1	105	nt	nt	-19
c1ccc(-c2nc(C3CCCCC3)no2)cc1	nt	84	86	-16
CCC(C)NC(=O)C1CCN(S(=O)(=O)c2ccc3c(c2)CC(C)N3C(=O)C2CC2)CC1 (stereo not given)	102	nt	nt	0
Cc1onc(-c2ccccc2)c1NC(=O)N(CCC#N)C(C)C	99	90	88	-27
Cc1ccc(NC(=O)c2ccc3nc(Cc4ccccc4)oc3c2)cc1F	99	91	90	nt
CC1(C)CC(C(=O)COc2ccc3ccc(=O)oc3c2)CCO1 (stereo not given)	nt	94	88	-7
Cc1oc2c(c1C(=O)NCc1cc(C(=O)O)co1)CCCC2	102	117	82	-17
O=C(O)COc1ccc(/C=C2/NC(=S)NC2=O)cc1	105	114	94	nt
CC(=O)N1CCc2cc(S(=O)(=O)Nc3ccc(Cl)cc3)ccc21	104	111	94	3

22 of the compounds above, with two lines to a compound:
The line under a structure holds: GIV-Gai inh | Sa growth inh | Sa growth inh second temp | HCMV NEC inh
c1cn2cc(Cc3nnc4n3CCC4)nc2s1
    nt | 97 | 87 | -16
Cc1cccc(NC(=O)C(C)N2CCNC(=O)C2)c1 (stereo not given)
    nt | 104 | 88 | -12
O=C(CSc1ncccc1C(F)(F)F)Nc1ccc(Cl)cc1
    100 | 85 | 93 | 8
COc1ccc2c(C)c(CCC(=O)NCc3ccccc3Cl)c(=O)oc2c1C
    98 | 97 | 90 | -25
O=C(c1cc2sccc2n1Cc1ccccc1)N1CCN(c2ccccc2F)CC1
    101 | 124 | 79 | 1
CCc1c(C)nc(-n2nc(C)cc2NC(=O)c2ccc(C(C)(C)C)cc2)[nH]c1=O
    104 | nt | nt | 8
CCc1nn(-c2ccccc2)c2nc(-c3ccccc3)nc(SCC(=O)Nc3cccc(OC)c3)c12
    104 | nt | nt | -11
COc1ccc(C(=O)OCC(=O)Nc2ncc(Cl)c(C)c2Cl)c(OC)c1
    nt | 77 | 62 | -33
Nc1nc2ccc(Oc3ccccc3)cc2s1
    nt | 95 | 97 | -11
CCN1CCCC(OC(=O)C(c2ccccc2)c2ccccc2)C1 (stereo not given)
    nt | 90 | 88 | -28&-29
Cc1cc2n(n1)CCCN2C(=O)Nc1ccc(F)c(Cl)c1
    96 | 88 | 80 | nt
COC(=O)C12CC3CC(CC(Br)(C3)C1)C2
    nt | 120 | 83 | -17
CC1(C)CC(NCc2ccccc2)CCO1 (stereo not given)
    97 | 86 | 82 | -41
Cc1ccc(/C(N)=N/OC(=O)c2ccccc2)cc1
    99 | 87 | 86 | -16
NNC(=O)c1ccc(OCc2ccc(F)cc2)cc1
    100 | 93 | 93 | -13
Cc1ccc(NC(=O)Cc2csc(C)n2)cc1
    122 | nt | nt | 2
O=C(CCc1nc(-c2cc3ccccc3[nH]c2=O)no1)NCc1cccnc1
    105 | nt | nt | -19
c1ccc(-c2nc(C3CCCCC3)no2)cc1
    nt | 84 | 86 | -16
CCC(C)NC(=O)C1CCN(S(=O)(=O)c2ccc3c(c2)CC(C)N3C(=O)C2CC2)CC1 (stereo not given)
    102 | nt | nt | 0
Cc1onc(-c2ccccc2)c1NC(=O)N(CCC#N)C(C)C
    99 | 90 | 88 | -27
Cc1ccc(NC(=O)c2ccc3nc(Cc4ccccc4)oc3c2)cc1F
    99 | 91 | 90 | nt
CC1(C)CC(C(=O)COc2ccc3ccc(=O)oc3c2)CCO1 (stereo not given)
    nt | 94 | 88 | -7

Later entries
SMILES	GIV-Gai inh	Sa growth inh	Sa growth inh second temp	HCMV NEC inh
CCn1cc(C)c(C(=O)O)c1CC(=O)NCC(C)C	98	nt	nt	-35
CC(C)(C)NC(=O)c1ccc(COc2ccc(Cl)cc2Cl)o1	103	77	53	-33
O=C(CN1C(=O)/C(=C/c2ccc(Br)cc2)SC1=S)Nc1nccs1	98	nt	nt	2
CCC(C)NC(=O)c1ccc(N2CCCC2=O)cc1 (stereo not given)	97	nt	nt	-3
COc1cccc(-c2nc(CS(=O)(=O)CC(=O)N3CCCCC3)c(C)o2)c1	100	85	84	-20
O=C(O)CCC(=O)N1CCN(c2nc(-c3ccccc3)c3cc(Br)ccc3n2)CC1	96	101	86	nt
CC(C)(C)c1ccc(C(=O)Nc2ccc3oc(-c4ccncc4)nc3c2)cc1	103	95	90	-20
CN(c1ccc2nc3ccccc3c(=O)n2n1)C1CCCCC1	101	90	58	-91
COc1cc(OC)cc(C(=O)Nc2ccc3nc4n(c(=O)c3c2)CCCCC4)c1	102	99	86	-31
O=C(CSc1ccccn1)Nc1ccc(Cl)cc1	102	107	83	-8
CCOC(=O)c1cc(-c2cccc(C(F)(F)F)c2)n[nH]1	nt	92	93	-14
O=C(CCc1nnc2n(Cc3ccc(F)cc3)c(=O)c3ccccc3n12)N1CCOCC1	101	86	86	-11
CC1CCCC(C)N1C(=O)CSc1ccc(-c2ccc3c(c2)OCCO3)nn1 (stereo not given)	104	103	83	7
CCc1ccc(C2C(C#N)=C(N)OC3=C2C(=O)CCC3)cc1 (stereo not given)	nt	83	87	-9
CC(=O)c1c(C)oc2ccc(N(C(=O)c3ccncc3)S(=O)(=O)c3ccc(C)cc3C)cc12	106	98	96	5
CCc1ccc(NC(=O)CSc2nc3ccccc3nc2Cc2ccc(C)cc2)cc1	100	84	87	nt
CC(C)CC(=O)Nc1cc2c(cc1N1CCCCC1)n(C)c(=O)c(=O)n2C	101	nt	nt	-21
CSc1n[nH]c(C23CC4CC(CC(C4)C2)C3)n1	108	167	83	-9
Cc1c(S(=O)(=O)C(C)C)c(N)n(Cc2ccc(Cl)cc2Cl)c1C	162	94	81	0
O=C(Cc1ccc2c(c1)OCCO2)NCc1ccco1	nt	87	94	-1

Single records (already shown).
`Cc1c(S(=O)(=O)C(C)C)c(N)n(Cc2ccc(Cl)cc2Cl)c1C` as listed: GIV-Gai inh = 162; Sa growth inh = 94; Sa growth inh second temp = 81; HCMV NEC inh = 0
`CCOC(=O)c1cc(-c2cccc(C(F)(F)F)c2)n[nH]1` as listed: GIV-Gai inh = nt; Sa growth inh = 92; Sa growth inh second temp = 93; HCMV NEC inh = -14

Following part:
SMILES	GIV-Gai inh	Sa growth inh	Sa growth inh second temp	HCMV NEC inh
CC(C(=O)Nc1cccc(C#N)c1)N(C)CC(=O)Nc1ccc(Cl)cc1 (stereo not given)	nt	91	86	-8
O=C(O)CSc1nnc2n(CCOc3ccccc3)c3ccccc3n12	103	95	93	5
O=C(c1ccc(N2C(=O)CCS2(=O)=O)cc1)N1CCN(Cc2ccc3c(c2)OCO3)CC1	104	nt	nt	-2
Cc1ccc(C(=O)Nc2ccc3c(c2)nc2n3CCN(Cc3ccccc3)C2)cc1	95	nt	nt	-17
CC1CCCC(C(=O)OCc2ccccc2)N1 (stereo not given)	100	104	100	6
N#Cc1sc(C(N)=O)c2c1CCCC2	99	107	85	1
Cc1nc2sccn2c(=O)c1S(=O)(=O)NCCC1=CCCCC1	100	nt	nt	-30
COC(=O)c1ccc(CSc2nc3ccncc3n2CC(=O)N2CCCC2)cc1	103&100	98	77	5&-7
CCOc1ccccc1C(=O)N1CC(C)N(C(=O)c2ccccc2OCC)CC1C (stereo not given)	99	113	86	nt
Cc1ccc(C)c(C2CC(=O)Nc3n[nH]c(C)c32)c1 (stereo not given)	97	nt	nt	10
COc1cc(-c2[nH]nc3c2C(c2cc(OC)c(OC(=O)N4CCOCC4)c(OC)c2)C(C#N)=C(N)O3)cc(OC)c1OC (stereo not given)	103	nt	nt	-25
CCCCNC(=O)c1sc2ncnc(N3CCN(c4ccc(OC)cc4)CC3)c2c1C	104	nt	nt	-9
CC1Cc2ccccc2N1C(=O)COc1ccc(C(=O)c2ccc(F)cc2)cc1 (stereo not given)	nt	92	93	-27
COC(=O)c1c(C)nn(CCC#N)c1N	105	80	79	-18
CCNc1nc(C)nc2sc(CC)cc12	107	72	89	0
COc1ccc(C2C(C#N)=C(N)OC3=C2C(=O)CC(C)(C)C3)cc1COc1ccccc1C (stereo not given)	99	nt	nt	-12
CSc1nnc(NC(=O)Cc2coc3cc(C)ccc23)s1	110	110	83	-1
c1ccc(Cn2ncc3c2ncn2nc(-c4ccncc4)nc32)cc1	nt	99	85	-14
CCN1c2ccccc2-c2nc(SCC(=O)Nc3cccc(C)c3C)ncc2S1(=O)=O	103	81	92	nt
Cc1nonc1NC(=O)CNC1CCCCC1	99	93	95	-6
N#Cc1cnn2c(-c3ccc(Cl)cc3Cl)ccnc12	107	nt	nt	-7
Cc1ccc(-n2ncc(-c3cc(C(=O)NC4CC4)c4cc(C)ccc4n3)c2C)cc1	100	nt	nt	-35
CCCOc1ccc(C2Oc3ccccc3C3CC(c4cccc5ccccc45)=NN32)cc1 (stereo not given)	101	nt	nt	-27
CC1=C(c2ccc(C(C)C)cc2)S(=O)(=O)N(CC(=O)Nc2cc(C)ccc2C)C1=O	100	nt	nt	-26
FC(F)(F)CN(Cn1nc(-c2ccco2)oc1=S)Cn1nc(-c2ccco2)oc1=S	nt	75	90	-27
COc1ccc(NC(=O)N2CCN(S(=O)(=O)c3ccc4c(c3)NC(=O)CO4)CC2)cc1	106	nt	nt	-13
C=CCOc1c(Br)cc(/C=C2\NC(=S)NC2=O)cc1Br	111	nt	nt	4
C#CCNCc1ccccc1	110	111	78	-11
CC(=O)Nc1cccnc1	nt	111	97	15
CCOCN(C(=O)Cn1c(CC(C)C)nc2ccccc21)c1c(C)cccc1CC	106	102	85	-13
N#CCSc1nc2ccc(Cl)cc2[nH]1	102	87	93	-24
O=C(CCCN1C(=O)c2ccccc2C1=O)NCc1ccccc1	nt	78	89	-39
Cc1ccc(-n2c(C)cc(C(=O)CSc3nnc4ccccn34)c2C)cc1	nt	89	86	12
Cc1ccc(SCCC(=O)N2CCCC2)cc1	103	98	104	4
CC1=NN(c2ccccc2)C(=O)/C1=C\c1c(O)n(-c2ccc(F)cc2)[nH]c1=O	104	99	77	-40
COc1ccc(NC(=O)c2ccc(C)c(NC3=NC4CS(=O)(=O)CC4S3)c2)c(OC)c1 (stereo not given)	107	nt	nt	-1
CC(C)Oc1ccc(C(=O)Nc2ccc(N3CCCS3(=O)=O)cc2)cc1	98	nt	nt	-18
O=C(O)CCc1nnc2ccc(N3CCC4(CC3)OCCO4)nn12	106	96	93	-10
Cc1cc(C)c2oc(-c3cc(N)ccc3Cl)nc2c1	107	96	86	-14

Screening results: PubChem, ICCB-Longwood Screening Facility, Harvard Medical School
